Screening results from PubChem BioAssay.
TRPML1 blocker: qHTS for Inhibitors of the Human Mucolipin Transient Receptor Potential 1 (TRPML1) | TRPML1-inducible cells, Ca2+ dye fluorescence, FDSS; active compounds read low; inhibition of EC80 agonist-evoked calcium signal | activity change, negative = inhibition, % (test concentration not listed) | actives 0.02% (n = 390,000) | Mucolipin-1 (Homo sapiens), Q9GZU1; in the data active means activity change below about -50%; inconclusive means about -30% to -50%; inactive means above about -30%;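 further: stimulus is agonist 54-4 at its EC80 concentration; on the % scale 0 is the no-effect control and ±100 the full control effect; compound concentration not given in the record; the text of the record puts the active cut at -80%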
Target sequence (Q9GZU1 whole entry, looked up): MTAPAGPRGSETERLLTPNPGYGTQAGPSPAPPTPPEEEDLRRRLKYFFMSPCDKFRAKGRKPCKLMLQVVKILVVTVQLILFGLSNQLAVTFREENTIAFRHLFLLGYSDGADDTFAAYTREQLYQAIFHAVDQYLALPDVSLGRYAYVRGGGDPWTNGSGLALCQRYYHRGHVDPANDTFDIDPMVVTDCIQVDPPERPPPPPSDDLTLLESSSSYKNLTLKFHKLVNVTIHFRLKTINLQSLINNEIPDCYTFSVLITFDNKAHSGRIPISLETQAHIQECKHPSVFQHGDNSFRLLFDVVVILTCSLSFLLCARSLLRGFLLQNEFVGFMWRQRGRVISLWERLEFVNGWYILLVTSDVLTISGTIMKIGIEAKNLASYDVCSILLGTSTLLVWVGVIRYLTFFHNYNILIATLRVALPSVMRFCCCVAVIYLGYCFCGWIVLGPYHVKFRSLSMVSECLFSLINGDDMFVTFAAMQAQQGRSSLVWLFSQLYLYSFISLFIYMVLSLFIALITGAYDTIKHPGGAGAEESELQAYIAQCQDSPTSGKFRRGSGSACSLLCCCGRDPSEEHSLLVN
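TRPML1-DL cells, Tet-induced overnight (~16 h, 37 °C) at 1,500 cells/well, were loaded with Ca8 no-wash dye plus quencher for 45-90 min at room temperature. Compounds were pinned during FDSS kinetic reading; agonist 54-4 at EC80 (4 uM final) then added.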
D2 agonist: Beta-Arrestin HTS for Positive Allosteric Modulators of the Human D2 Dopamine Receptor: Agonists; actives 0.084% (n = 360,000); DiscoveRx PathHunter D2 beta-arrestin, luminescence, 90 min; 100% = 57 uM dopamine signal; D(2) dopamine receptor (Homo sapiens), P14416; AID 624465, 2012; activation, % (no concentration beside the values); in the data active = activation above about 40%; inconclusive = about 15% to 40%; inactive = below about 15%; further: compound concentration not given in the record; the text of the record calls up to 30% inactive
Target sequence (P14416 whole entry, looked up): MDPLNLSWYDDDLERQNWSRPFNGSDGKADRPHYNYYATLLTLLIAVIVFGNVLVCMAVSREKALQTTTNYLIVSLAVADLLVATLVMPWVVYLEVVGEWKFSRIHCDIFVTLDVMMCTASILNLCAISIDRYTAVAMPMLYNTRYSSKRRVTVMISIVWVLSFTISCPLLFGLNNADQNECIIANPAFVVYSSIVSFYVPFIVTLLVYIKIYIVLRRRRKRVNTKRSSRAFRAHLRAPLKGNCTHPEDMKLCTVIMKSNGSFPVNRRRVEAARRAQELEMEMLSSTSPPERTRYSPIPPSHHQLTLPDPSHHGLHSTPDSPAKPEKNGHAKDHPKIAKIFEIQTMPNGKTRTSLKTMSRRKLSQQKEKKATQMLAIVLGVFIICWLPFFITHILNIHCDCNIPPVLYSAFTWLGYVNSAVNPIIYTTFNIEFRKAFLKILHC
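Agonist mode: compounds alone added to overnight-plated D2 PathHunter cells for 90 min at 37 C, with 57 uM final dopamine (EC100) defining full response. Beta-arrestin recruitment detected by chemiluminescent reagent, read after 1 h at ambient temperature.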
D2 potentiator: Beta-Arrestin HTS for Positive Allosteric Modulators of the Human D2 Dopamine Receptor: Potentiators | D(2) dopamine receptor (Homo sapiens), P14416 | DiscoveRx D2 beta-arrestin cells, luminescence, 90 min; 100% = 57 uM dopamine signal | potentiation, % (test concentration not listed) | actives 0.23% (n = 360,000); active = potentiation of 50% or more; inconclusive = 30% to 50%; inactive = 30% or less;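 further: compound concentration not given in the record; tested on top of an EC20 dose of dopamine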
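PathHunter D2 cells, attached overnight at 37 deg C, received compound in DMSO plus dopamine at EC20 (50 nM final) for 90 min at 37 deg C. Beta-arrestin recruitment was read as luminescence after 1 h with detection reagent at ambient temperature.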
PINK1 modulator: A Quantitative High throughput Screen to Identify Chemical Modulators of PINK1 Expression; Potency, µM (doses to about 76.6 µM), for the others: top-dose activation (PINK1 increase), hits mostly activators; AID 624263, 2012; PINK1 immunofluorescence, high-content cytometry, 24 h; actives 0.2% (n = 410,000); active = well fitted activation curve with a large enough effect; inconclusive = small, poorly fitted or top-dose-only effect; inactive = flat fitted curve, though single readings scatter; cell line not stated here;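 further: potency means the concentration at half of the fitted maximal effect; % of control where 0% means no effect; nearly all actives have a fitted effect of over 65% in size; a mitochondrial uncoupler was the plate control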
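Measures PINK1 amount and localization on or inside mitochondria by immunofluorescence. Stable cells get compounds at 5 concentrations for 24 hours before fixation and staining; CCCP controls included.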
Six1-Eya2 inh: qHTS Assay for Inhibitors of the Six1/Eya2 Interaction; activity change, % (concentration not given with the values); actives 0.56% (n = 360,000); AlphaScreen GST-Six1/His-Eya2 binding, biochemical; active compounds read low; control for the full effect not named in the record; AID 651725, 2012; in the data active = activity change below about -65%; inconclusive = about -30% to -65%; inactive = above about -30%; further: on the % scale 0 is the no-effect control and ±100 the full control effect
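Six1/Eya2 binding was read as AlphaScreen signal after compounds were pinned into GST-Six1 plus His-tagged Eya2 (5X stock 250/500 nM) in pH 8.0 Tris/NaCl/TCEP buffer, beads added, then incubated 1 h, 37 C, dark.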
TRPML1 ag: qHTS for Agonists of the Human Mucolipin Transient Receptor Potential 1 (TRPML1); Mucolipin-1 (Homo sapiens), Q9GZU1; TRPML1-expressing cells, Ca2+ dye fluorescence, FDSS; host cell line not named in the record; reference of the full effect not given here; activation, % (concentration not given with the values); actives 0.12% (n = 410,000); AID 624414, 2012; in the data active = activation above about 50%; inconclusive = about 30% to 50%; inactive = below about 30%; further: 0% is about no effect; the text of the record puts the active cut at 80%
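Kinetic FDSS Ca2+ read in Tet-induced TRPML1-DL cells (ABD Ca8 dye plus quencher, 45-90 min RT loading): baseline, then compound, then 110 s agonist window; EC80 agonist 54-4 at 4uM final added afterwards for a 110 s antagonist window.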
Starred values were filed as active, the others as inactive; ? = inconclusive; / = no result given; [ ] = dose if it differs, or a comment.

The line under a structure holds: D2 potentiator	PINK1 modulator	TRPML1 ag	TRPML1 blocker	Six1-Eya2 inh	D2 agonist
> COc1ccc(S(=O)(=O)N(C)CC(=O)Nc2ccc3c(c2)OCO3)cc1
→ 0	-3.4%[38.3 µM]	-0.6	15	-2	-0.1
> CCCCn1c(NC(C)=O)c(C#N)c2nc3ccccc3nc21
→ -21	-0.7%	2.7	18	-10	-6.9
> CCOc1ccccc1NC(=O)CN1C(=O)COc2ccc(S(=O)(=O)N3CCCCCC3)cc21
→ /	-0.9%	1.2	-7	/	/
> CC12CCC(C/C1=N/O)C2(C)CBr (stereo not given)
→ -11	1.6%	-0.3	23	3	-3.5
> O=C(COC(=O)c1ccc(O)cc1O)c1ccc2c(c1)OCO2
→ -7	1.4%	1.1	3	-2	-7.5
> COCCN(C(=O)CSCc1ccc(C)cc1)c1c(N)n(CC(C)C)c(=O)[nH]c1=O
→ -4	-1.1%	-0.3	22	0	9.4
> CCN(CC)CCN(C(=O)Cn1nnc(-c2ccc(C)o2)n1)C(C(=O)NC1CCCC1)c1ccc(F)cc1 (stereo not given)
→ -8	-0.7%	-0.4	-7	-5	-2.0
> O=C(O)CC(CC(=O)Nc1ccc(-n2ccc(C(F)(F)F)n2)cc1)c1ccccc1 (stereo not given)
→ -9	-1.4%	-0.1	-6	-7	-1.0
> O=C(NCCc1ccc(F)cc1)C1CCC(=O)N(CC2CCCCC2)C1 (stereo not given)
→ -9	0.6%	-0.6	8	-3	1.3
> COC(=O)c1ccccc1NS(=O)(=O)c1ccc(NC(C)=O)cc1
→ -1	0.3%	0.1	-1	19	-2.2
> CCN(CC)CCNC1=NCCn2c1cc1cc(OC)ccc12
→ -7	2.4%	2.5	4	15	-2.1
> COc1ccc(CNC(=O)COC(=O)CCC2CCCCC2)cc1
→ -10	1.7%	-1.1	31	3	-0.6
> CC(/C=C/c1ccco1)=N\NC(=O)c1cc(Cl)ccc1O
→ 7	0.3%	-0.2	12	-9	-0.9
> COc1ccc(OCCOCCOc2ccc(C)cc2[N+](=O)[O-])cc1
→ 0	-1.6%	0.0	-3	1	-3.6
> O=C(O)CCC(=O)NNC(=O)COc1cccc(Cl)c1
→ -9	1.6%	-0.2	-7	6	-8.4
> Nc1ccc(CCc2ccccn2)cc1
→ -4	-1.6%	-0.3	-3	13	-2.4
> Cn1c(NC(=O)C[n+]2cc(-c3ccc(Cl)cc3)n3c2CCC3)cc(=O)n(C)c1=O
→ -23	-0.5%	-0.4	-11	-4	-4.0
> N/N=C(\c1ccccc1)C12CN3CN(CN(C3)C1)C2
→ -6	-1.0%	0.4	-7	5	-0.3
> COC(=O)c1sc(N2C(=O)c3oc4ccc(C)cc4c(=O)c3C2c2ccc(OC)cc2)nc1C (stereo not given)
→ /	-1.1%	-0.2	-5	/	/
> O=C(NC1CCCCC1c1ccccc1)c1ccccc1 (stereo not given)
→ -4	-3.6%	2.5	-4	-1	-1.9
> Fc1cccc(-n2c(-c3ccco3)nc3nc4ccccc4nc32)c1
→ -4	?	-0.1	-15	10	0.9
> CC1(C(=O)Nc2ccccc2)Cc2c(-c3ccc4c(c3)OCO4)ccnc2O1 (stereo not given)
→ -6	4.0%	-0.6	/	-3	1.6
> CCCN1CCC(=O)NC1=S
→ -7	0.2%	-0.3	-8	-1	-1.5
> c1ccc(COCCCn2cc(-c3ccccc3)nn2)cc1
→ -31	-0.2%	-0.5	-12	13	1.6
> COc1ccc(-c2nnn(CC(=O)N3CCN(c4ccc(F)cc4)CC3)n2)cc1
→ -1	0.0%	/	/	4	-7.0
> O=P(Cc1nnco1)(c1ccccc1)c1ccccc1
→ -13	1.0%	-0.1	-10	10	0.6
> CC1CN(C(=O)CCS(=O)(=O)c2ccccc2)CC(C)O1 (stereo not given)
→ -2	1.3%	1.4	20	8	2.6
> Cn1cc(-c2coc3c(C(=O)NCc4cccnc4)cccc23)cn1
→ -12	4.8%	2.8	71	-7	2.5
> O=C(O)c1nc(-c2ccccc2)n(-c2ccccc2)n1
→ -30	2.0%	-0.2	-9	?	-3.8
> Cc1cccc(N2CCN(C(=O)c3ccc(CS(=O)c4cccc(Cl)c4)o3)CC2)c1C (stereo not given)
→ /	3.4%	0.1	44	/	/
> O=C(Cc1ccccc1)NCC(=O)N1CCCCC1
→ -20	1.7%	-0.5	0	-11	-4.1
> COc1ccc(C(=O)Nc2nc(CC(=O)NCCc3cccc(OC)c3)cs2)cc1
→ -11	2.2%	1.8	-3	-12	?
> COc1ccc(NC(=O)Nc2nnc(-c3ccco3)s2)cc1
→ 2	-2.0%	0.0	13	1	-2.8
> CCN(Cc1ccccc1)Cc1ccc(OCc2ccccc2)c(OC)c1
→ -7	?	3.2	-2	21	-2.0
> CSCC[C@H](NC(=O)Cc1c(C)c2c(cc(C)c3c(C)c(C)oc32)oc1=O)C(=O)O
→ -6	0.2%	-0.1	-5	-12	1.8
> COc1ccccc1N=Nc1c(O)[nH]c2ccc(Br)cc12
→ 1	?	-0.2	-23	-5	-12
> Cc1cc(CNCc2c(C(=O)N(C)Cc3ccccc3)nc3ccccn23)nn1C
→ 0	0.2%	0.0	0	6	-4.1
> CSc1ccc(CNc2ccc(Cl)cc2)cc1
→ -4	1.4%[38.3 µM]	3.0	1	-2	-0.6
> Cc1ccc(/C=N\NC(=O)c2cc(OCC(F)(F)F)ccc2OCC(F)(F)F)cc1
→ 0	17%	0.4	19	12	4.7
> CCCS(=O)(=O)N1CCN(C(=O)CCC2CCCC2)CC1
→ -5	-0.5%	-0.3	36	0	-2.3
> CC(/C=C1\SC(=S)N(CCC(=O)Nc2nc(C)cs2)C1=O)=C\c1ccccc1
→ -1	40µM*	0.5	-13	-4	-1.9
> O=C(NCCC(=O)N1CCN(c2ccc(F)cc2)CC1)c1ccco1
→ -8	1.1%	-0.5	0	3	-7.0
> CCNc1ccc2c(Cl)cc(=O)oc2c1
→ -2	-0.6%	1.2	-2	12	-1.4
> CNc1snc(C)c1C(=O)OCC(=O)c1ccc(Cl)cc1
→ -1	8.7%	0.8	53	-5	2.7
> COc1ccc(CCN2C(=O)CC(C(C)c3ccccc3)C2=O)cc1OC (stereo not given)
→ -7	3.5%	1.7	2	-3	-2.7
> COc1ccc(S(=O)(=O)NCCOc2ccccc2)cc1-n1cnnn1
→ -9	-1.5%	-0.5	-3	24	-1.4
> COc1ccc(N=c2cc(-c3ccc(O)cc3)oc3ccccc23)cc1
→ -19	?	2.3	-12	?	-3.9
> O=C(CN1C(=O)c2ccc(Br)cc2C1=O)NCC1CCCO1 (stereo not given)
→ -31	-1.3%	0.3	-6	-1	-2.1
> CCCn1c(NCc2c[nH]c3ccccc23)nc2ccccc21
→ -17	-3.7%	-0.3	2	-9	-1.1
> COc1cc(CN2CCCCCC2)cc(OC)c1
→ -13	4.0%	0.1	5	13	-1.7
> CCN(Cc1ccccc1)c1ccc(/C=N/NS(=O)(=O)c2cccc([N+](=O)[O-])c2)cc1
→ -20	-1.5%	3.2	4	-24	0.8
> CC(C)NC(=O)c1ccc(Cn2c(SCc3ccc(F)cc3)nc3cccnc32)cc1
→ /	16%	-0.2	19	/	/
> O=C1NC(=S)N/C1=C/c1ccc(Oc2ccc(C(F)(F)F)cc2[N+](=O)[O-])c(Cl)c1
→ 1	1.0%	0.4	11	7	-4.2
> Cc1ccc(C)c(-n2nnc3ccccc3c2=O)c1
→ -6	1.2%	-0.1	-24	-7	-5.0
> COC(=O)[C@H](Cc1ccccc1)NC(=O)Cn1ccc(NC(=O)OCc2ccccc2)nc1=O
→ -7	0.1%	-0.6	0	-21	-3.4
> CN(CC(=O)Nc1ccc(Cl)cc1)CC(=O)Nc1cccc(Br)c1
→ -8	1.6%	0.6	3	-1	-0.3
> CC(=O)Nc1ccc(S(=O)(=O)N2CCc3ccccc3C2)cc1
→ 2	2.1%	1.4	-16	6	1.5
> COc1ccc(-c2cc(C)no2)cc1S(=O)(=O)N(C)c1ccc(C)cc1
→ -8	7.0%	3.1	8	-3	-1.4
> Cc1cccc(C)c1NC(=O)CN(C)CC(=O)Nc1cc(Cl)ccc1C#N
→ -19	0.3%	0.0	-7	-1	-1.1
> Cc1cccc(/C=N/NC(=O)NC23CC4CC(CC(C4)C2)C3)n1
→ -5	2.3%	-0.5	-12	0	-1.8

Next structures
The line under a structure holds: D2 potentiator	PINK1 modulator	TRPML1 ag	TRPML1 blocker	Six1-Eya2 inh	D2 agonist
> COc1ccc(C(C(N)=O)c2ncc(C(F)(F)F)cc2Cl)cc1 (stereo not given)
→ -5	-0.6%	0.3	1	2	-3.4
> CC(=O)c1cccc(Oc2cc(NN3CCCCC3)c([N+](=O)[O-])cc2[N+](=O)[O-])c1
→ 0	-0.4%	-0.4	14	?	2.1
> CC(C)/C=C/C(=O)N1CCC(N2CCC(C(=O)N3CCOCC3)CC2)CC1
→ 0	-0.1%	0.1	-12	7	-2.2
> COCCNC(=O)CN(Cc1ccc2c(c1)OCO2)C(=O)CCC(=O)Nc1nccs1
→ -5	-0.8%	-0.4	-7	1	-2.0
> Cc1cc(C)cc(NC(=O)CN2CCCN(S(=O)(=O)c3ccc(Br)s3)CC2)c1
→ -12	-5.3%[38.3 µM]	1.7	56	-3	-3.0
> O=C(Nc1cccc(C(=O)N2CCOCC2)c1)NC1CCCCC1
→ 3	19%	-0.3	-4	-17	-3.5
> CC1CCCCN1C(=O)CN1CCSc2ccccc21 (stereo not given)
→ /	-1.2%	2.8	-5	/	/
> Cc1sc2nc(SCC(=O)N3CC(C)OC(C)C3)n(C)c(=O)c2c1C (stereo not given)
→ 6	2.8%	0.1	24	-10	-1.8
> O=C(O)c1ccccc1-c1nc2cc(Cl)ccc2c(=O)n1O
→ -6	0.4%	-0.1	7	7	-1.8
> CC1CCN(C(=O)COC(=O)C2CCN(S(=O)(=O)c3ccc(Cl)c(C(F)(F)F)c3)CC2)CC1
→ 2	13%	0.7	6	8	-5.8
> Cc1cc2ccccn2c1C(=O)c1ccccc1F
→ -2	5.7%	2.6	17	1	3.6

Single records, from the list above. Screens in order: D2 potentiator, PINK1 modulator, TRPML1 ag, TRPML1 blocker, Six1-Eya2 inh, D2 agonist
CC1CCCCN1C(=O)CN1CCSc2ccccc21 (stereo not given) across the screens: /, -1.2%, 2.8, -5, /, /
Cc1cc(CNCc2c(C(=O)N(C)Cc3ccccc3)nc3ccccn23)nn1C across the screens: 0, 0.2%, 0.0, 0, 6, -4.1
Cc1cc2ccccn2c1C(=O)c1ccccc1F across the screens: -2, 5.7%, 2.6, 17, 1, 3.6
O=C(O)CC(CC(=O)Nc1ccc(-n2ccc(C(F)(F)F)n2)cc1)c1ccccc1 (stereo not given) across the screens: -9, -1.4%, -0.1, -6, -7, -1.0
